ClpP mod = qHTS Assay for Activators of ClpP; ATP-dependent Clp protease proteolytic subunit (Bacillus subtilis (strain 168)), P80244; 340,000 tested, 1.9% active; Potency, µM (highest dose often 57.5 µM), without a hit: at the highest dose activity change, negative = active; AID 651965, 2013; purified B. subtilis ClpP, FRET peptide cleavage, 20 min; active = well fitted falling curve with a large enough effect; inconclusive = small, poorly fitted or top-dose-only effect; inactive = no such curve, though single readings can be large or run the other way; also: potency is read from the fitted curve at half-maximal effect; the source files actives as falling curves though it sought activators and does not explain the sign; nearly all actives have a fitted effect of over 65% in size; many hits overshoot -100%
Target sequence (P80244 whole entry, looked up): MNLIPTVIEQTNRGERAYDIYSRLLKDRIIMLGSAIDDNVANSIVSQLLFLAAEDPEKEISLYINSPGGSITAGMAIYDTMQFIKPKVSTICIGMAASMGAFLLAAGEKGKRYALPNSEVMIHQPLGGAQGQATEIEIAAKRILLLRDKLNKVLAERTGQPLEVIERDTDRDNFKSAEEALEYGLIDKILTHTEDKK
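Buffer: 100 mM Tris/HCl pH8, 100 mM KCl, 0.05% low protease BSA, 2.5% glycerol, 0.01% Tween-20. ClpP 10 microg/mL final; 20 min RT; delta FRET normalized to ADEP and DMSO controls.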
D2 PAM = human D2 receptor positive allosteric modulation; potentiation, % (no concentration beside the values); P14416; 360,000 tested, 0.23% active; DiscoveRx D2 beta-arrestin cells, luminescence, 90 min; 100% = 57 uM dopamine signal; active = potentiation of 50% or more; inconclusive = 30% to 50%; inactive = 30% or less;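 also: compound concentration not given in the record; tested on top of an EC20 dose of dopamine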
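PathHunter beta-arrestin assay in DiscoveRx D2 cells. Compounds were added with an EC20 of dopamine (50 nM final) for 90 min at 37 deg C. Luminescence was read 1 h after detection reagent, with 57 uM dopamine as the EC100 control.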
Menin MLL FP FL = inhibitors of human menin-MLL interaction, wild-type MLL peptide; Fluorescence polarization, fluorescein-MLL peptide displacement from menin; FP activity change, % at 61.4 µM; 290,000 tested, under 10 active; AID 1766; inconclusive = falling polarisation curve, or a change in total fluorescence; inactive = total fluorescence flat and polarisation flat or rising; no compound was filed as active; the % refers to the polarisation; negative = inhibition;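 also: % of control where 0% means no effect; inhibitors lower the polarisation; unlabelled MLL peptide was the positive control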
gsp antagonist = antagonists of gsp mutant (McCune-Albright syndrome); gsp-mutant cells, cAMP HTRF, 30 min; control for the full effect not named in the record; Potency, µM (titrated, usually from 76.9 µM), inactives show at the top dose activity change, negative = inhibition, usual class: inhibitors; 340,000 tested, 0.4% active; AID 624288; active = falling curve of any shape with a large fitted effect; inconclusive = falling curve, mostly with a smaller effect; inactive = flat or rising curve; cell line not stated here;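 also: intracellular cAMP measured with PDE inhibitor Ro 20-1724 present during compound exposure; potency is read from the fitted curve at half-maximal effect; % is scaled to controls: 0 for no effect and ±100 for the full control effect; nearly all actives have a fitted effect of over 65% in size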
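G418-selected cells were plated in DMEM/10% FBS for 16-24 h at 37C, then treated with compounds plus the PDE inhibitor […] (300 uM solution added) for 30 min at 37C. Intracellular cAMP was measured by HTRF after 30 min lysis at room temperature.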
Sfp inh = blocks B. subtilis Sfp PPTase activity; Q9F4F7; Biochemical Sfp PPTase activity, qHTS; Potency, µM, inactives show max response, negative = inhibition, actives largely listed as inhibitors; 310,000 tested, 3.5% active; active = well fitted inhibition curve with a large enough effect; inconclusive = small, poorly fitted or top-dose-only effect, or another doubt; inactive = no such curve, though single readings can be large or run the other way;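 also: the enzyme is Sfp with the accession as filed and its product quenches rhodamine fluorescence; potency is read from the fitted curve at half-maximal effect; 0% = enzyme reaction without inhibitor and -100% = no enzyme wells; top concentration of the series not given in the record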
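Step 1, compound plus 15 nM Sfp-PPTase, 15 min, room temperature. Step 2, add rhodamine-CoA (5 uM) and BHQ-2-YbbR (12.5 uM). Step 3, read 525/598 nm fluorescence at 0 and 30 min.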
TRPV1 PAM = human TRPV1 potentiation; TRPV1-expressing cells, Fluo-8 calcium influx, capsaicin EC20 potentiation; host cell line not named in the record; control for the full effect not named in the record; potentiation, % at 8.33 µM; Q8NER1; 320,000 tested, 0.02% active; active means potentiation above 80%; inconclusive means 30% to 80%; inactive means below 30%; also: 0% is about no effect
Target sequence (Q8NER1 whole entry, looked up): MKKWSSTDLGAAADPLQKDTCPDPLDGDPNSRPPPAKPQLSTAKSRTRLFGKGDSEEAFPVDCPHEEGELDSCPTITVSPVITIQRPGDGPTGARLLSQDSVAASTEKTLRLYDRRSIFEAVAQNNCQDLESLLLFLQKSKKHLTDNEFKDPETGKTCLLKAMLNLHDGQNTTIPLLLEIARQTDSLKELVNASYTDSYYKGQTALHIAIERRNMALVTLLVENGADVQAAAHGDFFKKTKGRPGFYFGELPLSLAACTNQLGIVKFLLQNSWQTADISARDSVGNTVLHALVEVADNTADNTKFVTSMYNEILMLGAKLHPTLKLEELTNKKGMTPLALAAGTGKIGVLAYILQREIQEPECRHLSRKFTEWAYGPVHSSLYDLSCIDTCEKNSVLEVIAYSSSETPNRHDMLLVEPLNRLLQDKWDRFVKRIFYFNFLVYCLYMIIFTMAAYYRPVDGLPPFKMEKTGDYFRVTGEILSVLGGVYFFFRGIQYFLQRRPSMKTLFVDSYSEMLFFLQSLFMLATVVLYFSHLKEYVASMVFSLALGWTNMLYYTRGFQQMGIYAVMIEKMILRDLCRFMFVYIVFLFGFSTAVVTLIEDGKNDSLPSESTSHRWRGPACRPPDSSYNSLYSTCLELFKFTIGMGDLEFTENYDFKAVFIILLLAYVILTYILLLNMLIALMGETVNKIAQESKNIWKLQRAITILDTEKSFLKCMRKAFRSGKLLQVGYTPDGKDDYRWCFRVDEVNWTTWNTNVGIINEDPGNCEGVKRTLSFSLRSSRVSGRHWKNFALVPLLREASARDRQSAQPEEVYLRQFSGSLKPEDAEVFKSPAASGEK
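TRPV1-expressing cells were cultured overnight at 35.5C and loaded with Fluo-8 calcium dye for 40 to 90 min at room temperature. After a 10 s baseline, compound was added and calcium influx was read kinetically for 3 min (ex 480/em 520 nm).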
gsp ag = activates gsp, the McCune-Albright syndrome mutation; AID 624287; gsp mutant cells, cAMP HTRF, 30 min; control for the full effect not named in the record; 340,000 tested, 0.13% active; Potency, µM (doses to about 76.9 µM), without a hit: at the highest dose activation (cAMP increase), actives largely listed as activators; active = well fitted activation curve with a large enough effect; inconclusive = small, poorly fitted or top-dose-only effect, or another doubt; inactive = no such curve, though single readings can be large or run the other way; cell line not stated here;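 also: phosphodiesterase inhibitor Ro 20-1724 added with compounds to block cAMP breakdown; potency is read from the fitted curve at half-maximal effect; nearly all actives have a fitted effect of over 60% in size; about a fifth of the inactives were tested at one dose only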
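Cells stably selected in G418 were plated at 2000/well, grown 16-24 hr, then given compounds in DMSO with the PDE inhibitor […] (300 uM solution added) for 30 min at 37C; cAMP was read by HTRF.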
An asterisk follows results filed as active; u = inconclusive; x = not tested or not shown; [ ] = remark or other dose.

nr	Compound	ClpP mod	D2 PAM	Menin MLL FP FL	gsp antagonist	Sfp inh	TRPV1 PAM	gsp ag
1	Cc1ccc(C(=O)OC2CCS(=O)(=O)c3sccc32)cc1 (stereo not given)	0.8%	0	-0.3	1%	1%	5	-27%
2	O=C(O)c1cc([N+](=O)[O-])c(Sc2nc3ccccc3[nH]2)c([N+](=O)[O-])c1	1.3%	-6	-18	9%	50µM*	16	11%
3	CCCN1CCN(C(=S)Nc2ccccc2C(F)(F)F)CC1	-1.0%	-16	1.5	8%	-14%	-2	-39%[inhibitor]
4	NC(=O)CC(NC(=O)Cc1ccc(Cl)cc1)c1ccc(NCC2CC2)c([N+](=O)[O-])c1 (stereo not given)	1.8%	-3	2.7	11%	-8%	11	x
5	COc1ccccc1CN1CCC(CNS(=O)(=O)c2cc(-c3cc(C)no3)ccc2C)CC1	-2.5%	-35	1.2	9%	28%	-4	3%
6	CC(C)CN(C(=O)c1cccc(F)c1)c1c(N)n(CC(C)C)c(=O)[nH]c1=O	x	-4	-0.6	12%	-1%	1	-2%[15.4 µM]
7	CC(C)N(C(=O)[C@H]1C[C@H](CC(=O)NCCC2=CCCCC2)C(=O)N2CCc3c([nH]c4ccc(Cl)cc34)[C@]12C)C(C)C	-17%	-5	x	-11%	x	x	x
8	O=C(c1ccccc1)c1c[nH]c(C(=O)NCCCn2ccnc2)c1	-0.4%	-4	-0.8	-9%	12%	5	14%
9	COc1ccccc1C1(CCNS(=O)(=O)c2ccc(C)cc2)CCOC(C(C)C)C1 (stereo not given)	-1.5%	6	-1.1	-20%	7%	-11	12%
10	Cc1ccc(CSCC(=O)Nc2cc(S(=O)(=O)N3CCOCC3)ccc2OCC(F)(F)F)cc1	-3.0%	-8	x	-1%	x	x	-10%
11	CCN(CC)CCNC(=O)Cn1nc(Cc2cccnc2)c2ccccc2c1=O	-2.7%	-6	-4.0	7%	0%	-22	u
12	O=C1CCC(C(=O)N2CCC(CCO)CC2)CN1Cc1ccc(Cl)cc1 (stereo not given)	2.1%	8	2.7	10%	17%	-11	1%
13	Cc1ccc(OCCCC(=O)Nc2cc(S(=O)(=O)N3CCOCC3)ccc2N2CCOCC2)cc1	-9.6%	-12	x	-6%	x	4	10%
14	CC(=O)N1CCc2cc(S(=O)(=O)N3CCCCC3C)ccc21 (stereo not given)	1.1%	1	x	7%	12%	0	-1%
15	O=C1c2ccccc2NC(c2cnc3ccccc3n2)N1O (stereo not given)	-25%	-4	3.9	-11%	4%	-6	22µM*
16	Cc1ccc(N(C(C)C(=O)NCc2ccncc2)S(C)(=O)=O)cc1C (stereo not given)	x	-2	-4.2	5%	11%	7	6%
17	CC(=O)Nc1cccc2c1C(=O)N(c1ccccc1OC(C)=O)C2=O	x	7	-0.8	9%	7%	3	-2%
18	O=C(c1ccc2c(c1)OCCO2)N1CCN(c2ncc(C(F)(F)F)cc2Cl)CC1	1.4%	-18	x	-19%	x	8	1%
19	Cc1noc(C)c1NC(=O)N(C)C[C@H]1Oc2ccc(NC(=O)CCC(F)(F)F)cc2C(=O)N([C@H](C)CO)C[C@@H]1C	-1.7%	-12	x	3%	x	x	-31%[inhibitor]
20	Cc1cccc(NC(=O)Nc2ccncc2)c1	0.6%	-5	-4.8	-5%	9%	-9	-9%
21	O=C(Nc1ccccc1C(=O)NC1CCCCC1)c1ccco1	19%	-8	0.2	-1%	15%	-3	u
22	CCN(Cc1ccccc1)C(=O)C1CCN(C(=O)Nc2ccccc2)CC1	2.4%	-4	x	4%	-8%	2	-30%[inhibitor]
23	Cc1cc(OC(=O)c2ccccc2Cl)ccc1N1C(=O)CCC1=O	-1.1%	-6	-2.4	4%	-3%	-13	0%[15.4 µM]
24	Cc1ccnc(NC(=S)NC(=O)c2cccs2)c1	16%	0	1.0	-15%	1%	6	-5%
25	O=C(COC(=O)Cc1ccc(F)cc1)NC(=O)NC1CCCC1	-3.5%	-4	x	16%	x	14	-32%[inhibitor]
26	CC(OC(=O)c1cccnc1Cl)C(=O)Nc1ccc(S(N)(=O)=O)cc1 (stereo not given)	x	-45	-4.0	x	-10%	u	-1%[15.4 µM]
27	Cc1ccc(C)c(NC(=O)c2ccc(OC(=O)c3ccco3)cc2)c1	10.0%	-7	1.2	-7%	-5%	-4	u
28	CSc1cccc(NC(=O)Nc2ccccc2)c1	-1.3%	-6	4.2	u	3%	-7	-30%
29	CCCCn1c(=O)[nH]c(=O)c2c(C(=O)OCC)cc(-c3cccs3)nc21	3.6%	-6	8.8	2%	13%	3	1%
30	NC(=O)CSc1ccc(S(=O)(=O)N2CCOCC2)cn1	0.1%	-2	x	-2%	x	-5	38%
31	NS(=O)(=O)c1cccc(NC(=O)CSc2nc3ccccc3[nH]2)c1	-4.7%	-16	2.4	3%	10%	10	23%
32	Cc1ccc(S(=O)Cc2ccc(C(=O)N3CCN(C4CCCCC4)CC3)o2)cc1 (stereo not given)	1.2%	-13	x	8%	14%	7	13%
33	CCOc1ccc(CN2CCN(C(=O)c3ccco3)CC2)cc1	-2.5%	57*	4.1	-14%	-17%	-18	16%
34	CCOC(=O)c1c(C)[nH]c(C(=O)CN(C)CC(=O)Nc2ccccc2Cl)c1C	-0.7%	-4	x	-4%	x	4	u
35	C=CCn1c(C)c(C(C)=O)cc(NC(=O)c2ccccc2)c1=O	x	0	5.7	-18%	2%	-21	-20%[15.4 µM]
36	CCC(Oc1ccc(C)cc1)C(=O)Nc1ccc(S(=O)(=O)Nc2cc(C)on2)cc1 (stereo not given)	x	-4	-8.8	-50%	19%	18	21%[15.4 µM]
37	CC1CCC(=NNc2ccc(C(F)(F)F)cc2[N+](=O)[O-])CC1 (stereo not given)	-0.9%	-6	1.5	6%	-2%	7	19%
38	CCOc1ccc(NC(=O)CCC(=O)N/N=C/c2ccc3c(c2)OCO3)cc1	-3.0%	0	-7.7	4%	21%	-5	-17%
39	Cc1cc(=O)oc2cc(OCC3CC(c4ccc(Br)cc4)=NO3)ccc12 (stereo not given)	28µM*	-4	5.0	23%	8%	12	-42%[inhibitor]
40	C=CCn1c(O)c(N=NC(=O)CNC(=O)/C=C/c2ccc(OC)cc2)c2ccccc21	x	-23	6.4	2%	14%	x	0%
41	COC(=O)N/N=C/c1ccc(-c2ccc(C)c(Cl)c2)o1	-3.5%	4	0.9	-11%	6%	5	u
42	COc1ccc(O)c(C(=O)c2cnc3c(c2)c(-c2ccc(F)cc2)c(C#N)c(=O)n3C)c1	x	12	-2.8	-4%	-14%	3	7%[15.4 µM]
43	OCC1CCCN(Cc2cn(Cc3ccccc3)nc2-c2cc3ccccc3o2)C1 (stereo not given)	x	-3	-5.8	16%	11%	-1	-4%
44	CC(=O)Nc1ccc(Cl)cc1-c1ccccc1	-1.5%	-20	x	-2%	x	x	-13%[15.4 µM]
45	COc1ccc2c(c1)[nH]c1c(=O)n(Cc3ccncc3)cnc12	-10%	-5	0.1	-1%	12%	-30	10%
46	O=C(CN(C(=O)c1csnn1)c1cccc2ccccc12)NCc1ccc(F)cc1	x	-2	4.3	-1%	8%	3	-43%[inhibitor]
47	CC(C)C(=O)NN(C(=O)c1ccccc1)c1ccccc1	0.3%	-2	1.7	8%	6%	2	-33%
48	CCN(C(=O)COC(=O)/C=C/c1nc2ccccc2s1)C1CCS(=O)(=O)C1 (stereo not given)	x	8	-0.7	-25%	23%	10	5%[15.4 µM]
49	CCOC(=O)c1ccc(NC(=O)CCC2COc3ccccc3O2)cc1 (stereo not given)	0.7%	4	4.9	u	13%	-13	-39%[inhibitor]
50	Cc1nnc(N/N=C/c2ccc(-c3ccccc3F)o2)n1N	x	-2	1.6	7%	45µM*	-1	4%

In a second layout: entries from further up
Below each SMILES: ClpP mod | D2 PAM | Menin MLL FP FL | gsp antagonist | Sfp inh | TRPV1 PAM | gsp ag
#37 CC1CCC(=NNc2ccc(C(F)(F)F)cc2[N+](=O)[O-])CC1 (stereo not given)
→ -0.9% | -6 | 1.5 | 6% | -2% | 7 | 19%
#38 CCOc1ccc(NC(=O)CCC(=O)N/N=C/c2ccc3c(c2)OCO3)cc1
→ -3.0% | 0 | -7.7 | 4% | 21% | -5 | -17%
#39 Cc1cc(=O)oc2cc(OCC3CC(c4ccc(Br)cc4)=NO3)ccc12 (stereo not given)
→ 28µM* | -4 | 5.0 | 23% | 8% | 12 | -42%[inhibitor]
#40 C=CCn1c(O)c(N=NC(=O)CNC(=O)/C=C/c2ccc(OC)cc2)c2ccccc21
→ x | -23 | 6.4 | 2% | 14% | x | 0%

The results go on.
nr	Compound	ClpP mod	D2 PAM	Menin MLL FP FL	gsp antagonist	Sfp inh	TRPV1 PAM	gsp ag
51	O=C(NN=C(Cc1ccccc1)Cc1ccccc1)C1CC1	0.6%	-1	-2.9	22%	-23%	-17	1%
52	CC(=O)c1cc(F)c(N2CCOCC2)cc1C	-1.4%	-2	3.5	-8%	-1%	2	-5%
53	Cc1ccc2[nH]c3c(N4CCOCC4)ncnc3c2c1	u	-18	3.4	u	6%	-5	-2%
54	CSc1ccc(S(=O)(=O)NC2CC2)cc1	0.7%	2	-1.7	-10%	4%	12	-11%
55	COc1cc2c(=O)n(CCC(=O)NCC3CCCO3)c(=O)n(CC(=O)Nc3ccc(C)cc3C)c2cc1OC (stereo not given)	4.0%	0	2.8	4%	4%	3	-5%
56	CCNc1nc(SCC(N)=O)nc2sc3c(c12)CCN(C)C3	1.3%	-9	u	14%	-2%	-13	5%[15.4 µM]

Quoted at random: three entries already listed.
nr	Compound	ClpP mod	D2 PAM	Menin MLL FP FL	gsp antagonist	Sfp inh	TRPV1 PAM	gsp ag
54	CSc1ccc(S(=O)(=O)NC2CC2)cc1	0.7%	2	-1.7	-10%	4%	12	-11%
55	COc1cc2c(=O)n(CCC(=O)NCC3CCCO3)c(=O)n(CC(=O)Nc3ccc(C)cc3C)c2cc1OC (stereo not given)	4.0%	0	2.8	4%	4%	3	-5%
53	Cc1ccc2[nH]c3c(N4CCOCC4)ncnc3c2c1	u	-18	3.4	u	6%	-5	-2%
